Screening data (PubChem BioAssay)
PV pol inh: poliovirus RdRp elongation inhibitors, primary screen, biochemical, fluorescence polarization, total intensity; Genome polyprotein (Poliovirus type 1 (strain Mahoney)), P03300; poliovirus polymerase elongation; active compounds read low; % elongation, % (compound at 16.7 µg/mL); hit rate 0.66% among 150,000; in the data active = % elongation below about 90%; note: some results filed as inactive read as strong as hits
Target sequence (P03300 1749-2209 limits assumed): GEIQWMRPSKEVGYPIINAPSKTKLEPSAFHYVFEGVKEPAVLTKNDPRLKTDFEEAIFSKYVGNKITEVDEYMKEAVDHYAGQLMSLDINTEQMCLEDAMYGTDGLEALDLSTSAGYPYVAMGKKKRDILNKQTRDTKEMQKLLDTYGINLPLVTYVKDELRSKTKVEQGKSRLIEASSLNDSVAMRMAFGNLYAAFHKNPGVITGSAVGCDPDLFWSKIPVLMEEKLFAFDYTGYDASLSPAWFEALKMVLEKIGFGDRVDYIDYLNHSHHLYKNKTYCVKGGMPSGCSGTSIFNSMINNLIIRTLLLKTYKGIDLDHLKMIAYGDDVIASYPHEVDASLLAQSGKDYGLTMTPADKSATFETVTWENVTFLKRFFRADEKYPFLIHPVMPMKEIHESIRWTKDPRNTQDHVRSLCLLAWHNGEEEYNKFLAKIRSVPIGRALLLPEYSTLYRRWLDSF
PV pol inh intensity: recorded beside PV pol inh, whose call it bears; % elongation; measured here: total intensity read-out; formula for this scale not given here;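 total fluorescence in place of polarization; lower means less elongation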
Numbers without * were called inactive. A portion of the library; the hit share may differ from the screen's.

SMILES	PV pol inh	PV pol inh intensity
Cc1c(Cl)cccc1NC(=O)CN1C(=O)COc2ccc(S(=O)(=O)N3CCCCCC3)cc21	121	123
COc1ccc(C2Oc3nc(SC)nnc3-c3ccccc3N2C(C)=O)cc1 (stereo not given)	109	112
Cc1ccccc1OCc1ccc(-c2nc(C#N)c(N3CCC(C(N)=O)CC3)o2)o1	100	103
CC(=O)c1ccc(NC(=O)c2nc(-c3ccccc3)n(-c3ccccc3Cl)n2)cc1	107	109
Cc1nc(-c2ccc(Cl)cc2)sc1CCNC(=O)c1ccc(C(F)(F)F)cc1	113	110
Cc1ccc(Cn2ccnc2SCC(=O)Nc2ccccc2C(F)(F)F)cc1	111	108
CCc1cccc(NC(=O)Cn2ncc3c([nH]c4ccc(C)cc43)c2=O)c1	114	111
COc1ccccc1N1CCN(S(=O)(=O)c2c(C)sc3ncn(CC(=O)Nc4ccc(C)cc4Br)c(=O)c23)CC1	108	108
CC(NC(=O)c1cc2ccccn2n1)c1ccccc1 (stereo not given)	104	111
CCc1cccc(NC(=O)Cn2c(=O)n(CC(=O)NCCc3ccccc3)c(=O)c3ccccc32)c1	105	104
COc1ccc(CNS(=O)(=O)c2ccc(F)c(C(=O)Nc3c(C)cc(C)cc3C)c2)cc1	110	104
Cc1nn(CC(=O)NCc2ccc(F)cc2)c2ccccc12	105	103
O=S(=O)(c1cccc(C(F)(F)F)c1)n1c(/C=C/c2ccccc2)nc2ccccc21	98	98
Cc1cc2oc(C(=O)Nc3ccc(S(=O)(=O)N4CCCCCC4)cc3)cc(=O)c2cc1C	106	110
COc1ccc(C)cc1Nc1c2c(nc3nc(-c4cccs4)nn13)CCCC2	111	116
O=C(Nc1ccccc1)Nc1nnc(SCC(=O)N2CCCCC2)s1	111	96
COc1ccc(NC(=O)CSC2=Nc3ccccc3C3=NC(CCC(=O)NCc4ccc(F)cc4)C(=O)N23)cc1Cl (stereo not given)	120	123
CCN(CC)CCOC(=O)c1ccc(NC(=O)c2nn(-c3ccc(C)cc3)c(=O)c3c2c2ccccc2n3C)cc1	103	110
C#CC(C)(CC)NC(=O)Cn1nnc(-c2ccc(OCc3c(F)cccc3Cl)cc2)n1 (stereo not given)	106	110
COc1ccc2cc3c(N)nn(C(=O)c4ccc(OC)c(OC)c4)c3nc2c1	103	105
COc1cc(NC(=O)Cn2c(C)cc3ccccc3c2=O)cc(OC)c1OC	106	107
Cc1cc(C)c(OCC(=O)Nc2cccc(-c3nc4ncccc4o3)c2)c(Br)c1	101	104
CC(=O)c1cccc(Nc2cc(C)nc3nc(Cc4ccccc4)nn23)c1	107	112
CCOC(=O)c1cc2c(=O)n3ccccc3nc2n(CC2CCCO2)c1=NC(=O)c1ccccc1OCC (stereo not given)	105	107
CCOC(=O)c1ccccc1NC(=O)Cn1ncc2c1-c1ccccc1OC2	104	107
COc1ccc(/C=C/c2nc(C#N)c(N3CCN(c4ccccc4)CC3)o2)cc1OC	107	101
COc1cccc(C(=O)c2sc(Nc3ccc(F)c(Cl)c3)nc2N)c1	104	106
Cc1oc2cc3oc(=O)c(CCC(=O)N4CCCCC4)c(C)c3cc2c1C	107	101
COc1ccc(OC)c2sc(N(Cc3cccnc3)C(=O)c3ccco3)nc12	104	110
CCOc1ccc2c(c1)c(=O)c(S(=O)(=O)c1ccc(Cl)cc1)cn2Cc1ccccc1C	106	108
CCn1c(CN2CCOCC2)nc2cc(NC(=O)c3ccccc3[N+](=O)[O-])ccc21	105	107
Cc1cc(C)cc(NS(=O)(=O)c2ccc3c(c2)CCCN3C(=O)C2CCC2)c1	110	108
COc1ccc2c(c1)CCc1c(C(=O)Nc3c(C)nn(Cc4ccc(Cl)cc4)c3C)noc1-2	101	105
CCOc1cccc(C2c3[nH]c4ccccc4c3CCN2C(=O)c2ccccc2F)c1 (stereo not given)	106	107
CCc1ccc(-n2nnc(-c3nc(-c4ccccc4)no3)c2C)cc1	109	114
Cc1cccc(C)c1NC(=O)c1oc2c(c1C)-c1nn(Cc3ccccc3)cc1CC2	108	111

One compound at a time, from the list above:
Listed for COc1ccc2c(c1)CCc1c(C(=O)Nc3c(C)nn(Cc4ccc(Cl)cc4)c3C)noc1-2 = PV pol inh = 101; PV pol inh intensity = 105
Listed for Cc1cc(C)cc(NS(=O)(=O)c2ccc3c(c2)CCCN3C(=O)C2CCC2)c1 = PV pol inh = 110; PV pol inh intensity = 108

The list goes on.
SMILES	PV pol inh	PV pol inh intensity
CCC(Sc1nc2cc3c(cc2c(=O)n1CCCC(=O)NCc1ccc(OC)cc1)OCO3)C(=O)NCCCOC (stereo not given)	103	99
COC(=O)c1ccc([C@H]2Nc3ccc(S(=O)(=O)Nc4cccc(C)c4)cc3[C@H]3C=CC[C@H]32)cc1	115	126
CCOc1ccc(NC(=O)c2cnn3c2NC(C)=C(C(=O)Nc2ccc(Cl)cc2)C3c2ccc(OC)c(OC)c2)cc1 (stereo not given)	107	110
Cc1ccc(N2C(=O)c3n[nH]c(C)c3C2c2ccc(C(C)C)cc2)cc1 (stereo not given)	109	113
COc1ccc(C(=O)NCC(c2ccc3c(c2)OCO3)N2CCN(C)CC2)cc1 (stereo not given)	113	116
COc1ccc(C(=O)/C=C/c2cn(CC(O)CN3CCc4ccccc43)c3ccccc23)cc1OC (stereo not given)	103	108
CCOC(=O)c1ccccc1NC(=O)n1ncc2cc(Cl)ccc21	110	113
Cc1cccc(C)c1NC(=O)c1ccc2c(c1)N(Cc1cccc(Cl)c1)C(=O)c1ccccc1S2=O (stereo not given)	107	105
CC1CCCCN1S(=O)(=O)c1ccc2[nH]c(=O)cc(C(=O)NCCc3ccc(Cl)cc3)c2c1 (stereo not given)	116	106
O=C(Nc1ncc(Cc2ccc(F)cc2)s1)c1ccc2c(c1)CC(c1ccccc1)OC2=O (stereo not given)	112	115
COc1ccc2c(c1)CCc1c(C(=O)Nc3cc(OC)c(Cl)cc3OC)noc1-2	100	100
COC(=O)Cn1c(SCCOc2ccccc2OC)nc2ccccc21	111	113
Cc1cc(=O)n(Cc2ccccc2Cl)c2c1c(C)nn2-c1ccccc1	104	111
COc1ccccc1C(=O)NCCc1csc(-c2ccc(C(F)(F)F)cc2)n1	111	100
COc1ccc(OCC(=O)Nc2ccc(O)c(-c3nc4ccccc4s3)c2)cc1	104	106
COc1ccc(-c2cc(C)nc3c(-c4ccc(OC)c(OC)c4)c(C)nn23)cc1	103	111
CCOC(=O)c1c(C)oc2nc(C)nc(NCC3CCN(Cc4cccc(Cl)c4)CC3)c12	105	109
CCOc1ccccc1NC(=O)N1CCN(Cc2cc(=O)n3nc(-c4ccc(C)cc4)sc3n2)CC1	102	107
Brc1ccc(-c2ccc(CNCCSc3nnnn3-c3ccccc3)o2)cc1	106	102
COc1ccccc1NC(=O)c1c(NCc2ccc(C)o2)sc2c1CCC(C)C2 (stereo not given)	107	109
CCN(CC)CCn1c2c(c(SCC(=O)Nc3cccc(C(F)(F)F)c3)nc1=O)CCC2	97	104
COc1ccc(C2=NS(=O)(=O)N(C)C(C(=O)N(C)Cc3ccccc3)=C2)cc1OC	115	108
COc1ccc(CNC(=O)c2cc(-c3ccc(OC)cc3)nc3n[nH]c(-c4cccc([N+](=O)[O-])c4)c23)cc1	107	105
COc1ccc(-c2cc(C(F)(F)F)c(C#N)c(SCC(=O)Nc3cccc(C)c3)n2)cc1	108	111
COc1ccccc1NC(=O)CSc1nncn2c1cc1sccc12	109	106
COc1ccc(OC)c(NC(=O)CSC2=Nc3ccccc3C3=NC(CCC(=O)NCc4ccco4)C(=O)N23)c1 (stereo not given)	106	105
COc1cccc(-n2c(-c3ccc(Cl)cc3)cc3c2CC(C)(C)CC3=O)c1	106	108
COc1ccccc1NC(=O)Cn1nc(C)n2cccc2c1=O	111	115
CCC(=O)N1CCc2cc(Br)cc(S(=O)(=O)CCC(=O)NCCc3ccccc3)c21	109	111
CC(C)Oc1ccc(CNS(=O)(=O)c2ccc3c(c2)C(C)(C)C(=O)N3C)cc1	109	111
Cc1cc2nc(-c3ccc(OCc4ccccc4Cl)cc3)cc(C(F)(F)F)n2n1	107	109
Fc1ccc(-n2ncc3c(N4CCC(Cc5ccccc5)CC4)ncnc32)cc1	108	107
CCOc1ccccc1CNC(=O)c1cccc(NC(=O)c2nsc3ccccc23)c1	107	114
Cc1ccccc1NCc1nc2ccccc2n1CCOc1ccccc1	100	101
O=C1CC(=O)Nc2cc(S(=O)(=O)Nc3cccc(Br)c3)ccc2N1	99	104
CC(C)CC(=O)NCC1(N(C)C)CCCCC1	101	96
COc1ccc(OC)c(C2Nc3c(C)cc(C)cc3-c3cc(C)nn32)c1 (stereo not given)	101	102
Cc1cc(C)c2nc(N3CCCC(C(=O)NCc4cccc(Br)c4)C3)sc2c1 (stereo not given)	111	116
CC(C)Sc1ncc(Cl)c(C(=O)Nc2nnc(C(C)C)s2)n1	110	114
CCOc1ccc(Oc2nc(NCC(C)C)nc(NC(C)(C)C)n2)nn1	111	108
O=C1[C@@H]2CSC(c3ccc(Cl)cc3)N2C(=O)N1c1ccccc1 (stereo not given in full)	102	103
COc1ccc(CCN2C(=O)CN(C3CCC(C)CC3)C(=O)C2c2ccc(OC(C)C)c(OC)c2)cc1OC (stereo not given)	104	100
COc1ccc2cc3cc(C(=O)NCc4ccccc4OC)oc3nc2c1	110	110
CCOC(=O)CCn1cnc2onc(-c3ccccc3Cl)c2c1=O	114	111
COc1ccc(-c2nc(SCCOc3ccccc3Cl)n3[nH]c(=O)cc3n2)cc1	102	107
CCOc1ccc(CCNC(=O)C2CCN(C(=O)N3CC(CC)Oc4ccccc43)CC2)cc1 (stereo not given)	101	108
COc1ccccc1CNC(=O)c1cc2cccc3c2n1CCS3	111	176
Clc1ccc(CSc2nncn3c2cc2occc23)cc1	107	112

Look-ups from the list.
CCOc1ccccc1CNC(=O)c1cccc(NC(=O)c2nsc3ccccc23)c1 in PV pol inh = 107
Cc1cc(=O)n(Cc2ccccc2Cl)c2c1c(C)nn2-c1ccccc1 in PV pol inh = 104
CC1CCCCN1S(=O)(=O)c1ccc2[nH]c(=O)cc(C(=O)NCCc3ccc(Cl)cc3)c2c1 (stereo not given) in PV pol inh = 116

Continued.
SMILES	PV pol inh	PV pol inh intensity
O=C(Nc1cccc(O)c1)c1noc2c1CCc1ccccc1-2	104	110
COC(=O)CCn1cnc2onc(-c3cc(F)cc(F)c3)c2c1=O	109	111
COc1ccc(C2C(=O)N(C3CCCCC3)CC(=O)N2C2CCCCC2)cc1 (stereo not given)	101	105
CC(C)c1ccc(Nc2ncnc3c2nc2n3CCCC2)cc1	110	104
CSc1ccc(CNC(=O)c2ccc3c(c2)N(C)C(=O)C2CCCCN32)cc1 (stereo not given)	111	116
Cc1ccc(-n2nnnc2CNC(=O)c2ccccc2S(C)(=O)=O)cc1C	112	117
Cc1nnc(NC(=O)c2ccccc2)s1	105	112
Cn1c(=O)[nH]c2cc(-c3noc(-c4cccc(Cl)c4)n3)ccc21	112	115
COCCCNC(=O)c1cnc2sc(N3CCCCC3)nn2c1=O	104	107
CCOc1ccc(CNC(=O)CN2C(=O)CSc3ccc(S(=O)(=O)N4CCOCC4)cc32)cc1OC	106	108
Cc1ccc(S(=O)(=O)c2nnn3c2nc(NC2CCCCC2)c2sccc23)cc1	100	99
Cc1ccc(C)c(Cn2nnc(C(=O)NCc3ccc(Cl)cc3Cl)c2N)c1	105	112
Cc1ccc(CNC(=O)C2CCN(S(=O)(=O)c3ccc4[nH]c(=O)ccc4c3)CC2)cc1	101	104
COCc1cc(C)nc2sc(C(=O)Nc3ccc(OC(F)(F)F)cc3)c(N)c12	100	101
CCN1C(=O)c2ccccc2Sc2ccc(NC(=O)Nc3cc(C)cc(C)c3)cc21	111	112
CCN(CC)c1ccc(NC(=O)CCc2nc3cccnc3n2Cc2cccs2)c(C)c1	100	107
COc1ccc(C2CC(=O)c3cc(-c4nc(-c5ccc(Cl)cc5)c(C)s4)c(=O)[nH]c3C2)cc1 (stereo not given)	108	114
CCOc1ccccc1C1C(C(=O)Nc2ccccc2)=C(C)Nc2nc(-c3ccccc3)nn21 (stereo not given)	111	109
COc1ccc(NC(=O)C2CCC(CNS(=O)(=O)c3ccc(Br)s3)CC2)cc1OC (stereo not given)	106	110
COc1ccccc1N1CCN(S(=O)(=O)c2ccc(-c3ccno3)cc2OC)CC1	101	106
O=C(Nc1ccc(C(F)(F)F)cc1)C1CCC(CNS(=O)(=O)c2cccc3nsnc23)CC1 (stereo not given)	104	109
CCN(CC)c1ccc(NC(=O)C2COc3ccc(OC)cc3C2)c(C)c1 (stereo not given)	115	106
CCOC(=O)c1ccccc1NC(=O)Cn1c(=O)n(Cc2nc(C)no2)c(=O)c2ccccc21	102	107
CCCCc1nn2c(=O)cc(COC(=O)c3ccc(NC(=O)c4cccs4)cc3)nc2s1	105	108
O=C(COc1ccccc1F)Nc1ccc2nc(SCc3ccccc3)sc2c1	103	106
CN(C(=O)CSc1nnc2[nH]c(=O)cc(-c3ccccc3)n12)c1ccccc1	105	97
O=C(Cn1nnc(-c2ccc(Cl)cc2)n1)NCc1ccc(F)cc1	106	105

Reformatted with bars between the fields: part of the list above
canonical_smiles | PV pol inh | PV pol inh intensity
O=C(Cn1nnc(-c2ccc(Cl)cc2)n1)NCc1ccc(F)cc1 | 106 | 105
CCN(CC)c1ccc(NC(=O)C2COc3ccc(OC)cc3C2)c(C)c1 (stereo not given) | 115 | 106
CN(C(=O)CSc1nnc2[nH]c(=O)cc(-c3ccccc3)n12)c1ccccc1 | 105 | 97
COc1ccc(C2CC(=O)c3cc(-c4nc(-c5ccc(Cl)cc5)c(C)s4)c(=O)[nH]c3C2)cc1 (stereo not given) | 108 | 114
COc1ccccc1N1CCN(S(=O)(=O)c2ccc(-c3ccno3)cc2OC)CC1 | 101 | 106
CCN(CC)c1ccc(NC(=O)CCc2nc3cccnc3n2Cc2cccs2)c(C)c1 | 100 | 107

Arranged by formula weight (highest first): 4 of the compounds above
SMILES	PV pol inh	PV pol inh intensity
CCCCc1nn2c(=O)cc(COC(=O)c3ccc(NC(=O)c4cccs4)cc3)nc2s1	105	108
O=C(COc1ccccc1F)Nc1ccc2nc(SCc3ccccc3)sc2c1	103	106
CCN1C(=O)c2ccccc2Sc2ccc(NC(=O)Nc3cc(C)cc(C)c3)cc21	111	112
O=C(Cn1nnc(-c2ccc(Cl)cc2)n1)NCc1ccc(F)cc1	106	105
